Screens: PubChem, National Center for Advancing Translational Sciences (NCATS)
miR-21 FLuc: qHTS Assay for Modulators of miRNAs and/orActivators of miR-21; HeLa miR-21 FLuc reporter, luciferase, 48 h; Potency, µM (series often up to 38.3 µM), inactives show at the highest dose reporter change, positive = more light; 340,000 tested, under 10 active; AID 2288, 2010; active = well fitted rising curve with a large enough effect; inconclusive = small, poorly fitted or top-dose-only effect; inactive = no such curve, though single readings can be large or run the other way;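 also: % of control where 0% means no effect; miR-21 action dims this reporter so a rising signal means less miR-21 action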
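Luminescence from a firefly luciferase reporter carrying a miR-21 binding site downstream, stably expressed under a CMV promoter in HeLa cells that make miR-21 endogenously, reports miRNA modulation after 48 h compound exposure up to approximately 40uM final.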
Rango-impB inh: qHTS Assay for Inhibitors of Rango (Ran-regulated importin-beta cargo) - Importin beta complex formation; Rango CFP/YFP FRET sensor + importin beta, 45 min; actives 0.031% (n = 340,000); Importin subunit beta-1 (Homo sapiens), Q14974; Potency, µM (series often up to 92.2 µM), for inactives: at the top dose inhibition of complex formation; active = rising FRET ratio curve, often small or poorly fitted; inconclusive = mostly compound fluorescence or quenching in the first reads; inactive = flat curves in all reads;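 also: potency is read from the fitted curve at half-maximal effect; 0% = DMSO wells and 100% = buffer wells lacking importin beta; nearly all actives have a fitted effect of over 15% in size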
Target sequence (Q14974 whole entry, looked up): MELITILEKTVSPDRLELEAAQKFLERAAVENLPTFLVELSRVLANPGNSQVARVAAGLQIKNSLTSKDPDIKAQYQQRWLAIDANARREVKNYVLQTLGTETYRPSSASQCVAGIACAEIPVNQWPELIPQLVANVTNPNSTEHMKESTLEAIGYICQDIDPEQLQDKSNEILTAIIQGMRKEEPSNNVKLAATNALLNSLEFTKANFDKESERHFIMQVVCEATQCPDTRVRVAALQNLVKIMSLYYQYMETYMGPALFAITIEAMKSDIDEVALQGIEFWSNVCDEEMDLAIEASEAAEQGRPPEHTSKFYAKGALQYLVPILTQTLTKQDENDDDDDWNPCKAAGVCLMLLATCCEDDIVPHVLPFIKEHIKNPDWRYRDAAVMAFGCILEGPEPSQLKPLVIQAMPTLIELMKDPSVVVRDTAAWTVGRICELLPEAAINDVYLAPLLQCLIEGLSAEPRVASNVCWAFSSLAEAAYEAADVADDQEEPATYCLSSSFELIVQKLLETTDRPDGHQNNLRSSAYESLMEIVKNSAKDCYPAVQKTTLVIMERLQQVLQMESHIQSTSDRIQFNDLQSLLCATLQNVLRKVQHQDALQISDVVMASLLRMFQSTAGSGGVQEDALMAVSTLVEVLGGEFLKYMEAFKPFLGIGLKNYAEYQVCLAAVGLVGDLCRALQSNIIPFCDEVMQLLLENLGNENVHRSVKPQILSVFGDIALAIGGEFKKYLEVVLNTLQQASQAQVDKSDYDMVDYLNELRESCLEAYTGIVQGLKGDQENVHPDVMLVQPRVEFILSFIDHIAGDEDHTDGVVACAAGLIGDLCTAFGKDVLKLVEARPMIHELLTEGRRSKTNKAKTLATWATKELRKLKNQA
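FRET biosensor (snurportin 1 IBB flanked by EYFP and cerulean), 50 nM, with compound 5 min, then 0.125 microM importin beta in PBS, 1 mM DTT, 0.02% Tween-20, 0.1% BSA. CFP/YFP ratio read after 45 min at room temperature; pre-read flags interference.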
Rango release inh: qHTS Assay for Inhibitors of RanGTP induced Rango (Ran-regulated importin-beta cargo) - Importin beta complex dissociation. Snurportin-1 (Homo sapiens) + GTP-binding nuclear protein Ran (Homo sapiens) + Importin …. actives 0.071% (n = 340,000). AID 540253, 2011. Biochemical FRET Rango-importin beta, RanGTP-induced dissociation. Potency, µM (doses to about 46.1 µM), inactives show at the top dose activity change, negative = inhibition; active means falling FRET ratio curve, often poorly fitted, with flat reads before Ran was added; inconclusive means other falling curves, or compound fluorescence or quenching; inactive means flat or rising ratio curve;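 also: potency is read from the fitted curve at half-maximal effect; % of control where 0% means no effect; nearly all actives have a fitted effect of over 45% in size; -100% = wells without RanGTP and RCC1; the record marks most hits as doubtful in a second field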
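Two FRET readings bracket the reaction: one 5 min after compound meets Rango–importin beta, another 45 min after RanGTP-RCC1 (0.6 uM Ran, 0.2 uM RCC1, 2 mM GTP) is added. Only the second defines inhibition.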
GLA inh pH 4.5: qHTS Assay for Inhibitors of Human alpha-Galactosidase at pH 4.5; activity change, negative = inhibition, % at 105 µM; purified enzyme, 4-MU-alpha-Gal fluorescence, pH 4.5; Alpha-galactosidase A (Homo sapiens), P06280; 230,000 tested, under 10 active; inconclusive = small, poorly fitted or top-dose-only inhibition, or a rising curve; inactive = flat fitted curve, though single readings scatter; no compound was filed as active;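 also: 0% = full activity with enzyme and -100% = basal without enzyme; dose as in the result columns while the protocol names 77 µM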
An asterisk follows results filed as active; u = inconclusive; x = not tested or not shown; & = joins results of further samples; [ ] = another dose, or the depositor's remark. An excerpt (hit frequency here may not be typical).

SMILES	miR-21 FLuc	Rango-impB inh	Rango release inh	GLA inh pH 4.5
Cc1noc(C)c1C(=O)NCCc1c(C)[nH]c2ccccc12	0%	-1.4%	-18%	x
CC(=O)NC(Cc1ccccc1C)C(=O)NC1CCN(C(=O)c2cccc(C)c2)CC1 (centres undefined)	0%	4.3%	11%	-1
Cc1ccc(-n2c(C)cc(C(=O)COc3c(CO)cc(F)cc3CO)c2C)cc1C	23%	2.1%	0%	3
CN1CCc2c(sc(NC(=O)Cc3ccccc3)c2C(N)=O)C1	-6%	u	u	x
COc1c2c(c(CCC(=O)O)c3c1C=CC(C)(C)O3)OC(C)(C)C=C2	x	0.5%	0%	x
Cc1cccc(N2CCN(c3ccc(NC(=O)/C=C\C(=O)O)cc3)CC2)c1	0%	0.2%	-18%	-5
Cc1ccccc1-c1noc(N)c1C#N	2%	-0.6%	-2%	0
COC(=O)c1nc2ccc(C)cn2c1F	-46%	4.7%	5%	6
Cn1c(Cn2nnc3ccccc32)nnc1SCC(=O)c1ccc(F)cc1	-20%	-0.7%	-1%	4
COc1c(Cl)cnn(-c2ccc(Cl)c(Cl)c2)c1=O	-7%	-1.2%	1%	2
Cc1ccccc1NC(=O)N1CCN(c2ncccn2)CC1	-3%	-1.7%	1%	4
CC1CCC(NC(=O)C2CCN(C(=O)Nc3ccccc3)CC2)CC1 (centres undefined)	x	-0.6%	1%	x
CCCCNC(=O)CN1C(=O)NC2(CCCc3ccccc32)C1=O (centres undefined)	-3%	2.2%	0%	6
COc1ccc(NC(=O)CNC(=O)Cn2c(C)cc3ccccc3c2=O)cc1OC	6%&16%	0.5%	1%	11
CCCCn1c(N)c(N(CCOC)C(=O)Cn2c(=O)cnc3ccccc32)c(=O)[nH]c1=O	x	-3.3%	-13%	x

Molecules shown so far that contain a COOH group:
SMILES	miR-21 FLuc	Rango-impB inh	Rango release inh	GLA inh pH 4.5
COc1c2c(c(CCC(=O)O)c3c1C=CC(C)(C)O3)OC(C)(C)C=C2	x	0.5%	0%	x
Cc1cccc(N2CCN(c3ccc(NC(=O)/C=C\C(=O)O)cc3)CC2)c1	0%	0.2%	-18%	-5

(more compounds)
SMILES	miR-21 FLuc	Rango-impB inh	Rango release inh	GLA inh pH 4.5
N#Cc1nc(COc2ccc(Br)cc2)oc1NCCN1CCOCC1	-9%	3.3%	45%	-2
CCN(CC1COc2ccccc2O1)C(=S)Nc1ccccc1 (centres undefined)	8%	6.3%	-6%	3
CCC(C(=O)Nc1ccon1)c1ccccc1 (centres undefined)	-4%	-0.7%	0%	x
COc1cc(C2N(C)CCC3(OCCO3)C2(C)C)cc(OC)c1OC (centres undefined)	-8%	-4.0%	1%	6
c1ccc(-c2nnnc3ccccc23)cc1	6%	0.8%	6%	5
CC(C)C(OC(=O)c1nsc(Cl)c1Cl)C(=O)NC(C)(C)C (centres undefined)	1%	-0.2%	1%	-2
CCCN1CN(c2ccccc2)C(=S)N(c2ccccc2)C1	-1%	-0.7%	-17%	3
CCOc1ccccc1OCCCC(=O)N(C)CC(=O)Nc1cc(C)ccc1C	0%	-2.5%	1%	3
COc1cccc(NC(=O)c2cc(OC)c(OC)c(OC)c2Br)c1	-1%	-0.3%	-16%	0
NC(=O)c1c(NC(=O)CN2C(=O)CCC2=O)sc2c1CCCCC2	-4%	-0.2%	-10%	-5
CC(CN1CCCC1)OC(=O)c1ccc(Cl)cc1 (centres undefined)	0%	1.1%	-10%	x
CSc1ncccc1C(=O)OC(C)C(=O)Nc1cccc(S(=O)(=O)N2CCOCC2)c1 (centres undefined)	x	-0.1%	-4%	x
CC(C)c1cccc(C(C)C)c1NC(=O)c1ccc(OCC(=O)NCc2ccccc2)cc1	-1%	x	x	6
COC(=O)CSc1nc2c(c(-c3ccc(C)o3)c1C#N)CCCC2	1%	-1.1%	0%	1
CCOc1ccc(NC(=O)c2sccc2-n2cccc2)cc1	-13%	0.3%	-2%	-9

One compound at a time, as listed above.
`CCCN1CN(c2ccccc2)C(=S)N(c2ccccc2)C1` across the screens: miR-21 FLuc = -1%; Rango-impB inh = -0.7%; Rango release inh = -17%; GLA inh pH 4.5 = 3
`N#Cc1nc(COc2ccc(Br)cc2)oc1NCCN1CCOCC1` across the screens: miR-21 FLuc = -9%; Rango-impB inh = 3.3%; Rango release inh = 45%; GLA inh pH 4.5 = -2

Next section:
SMILES	miR-21 FLuc	Rango-impB inh	Rango release inh	GLA inh pH 4.5
COC(=O)C1=C(C)N(C(C)C)C(=O)C1(NC(C)=O)C(F)(F)F (centres undefined)	2%	-0.2%	19%	6
O=C(CSc1ccsc1[N+](=O)[O-])NCc1ccccc1	-37%	0.9%	-6%	4
Cc1cccc(C(=O)NCCC(=O)Nc2nc(C)c(Cc3ccc4c(c3)OCO4)s2)c1	-18%	-0.1%	-5%	-8
CN(CC(=O)Nc1ccc(N2CCOCC2)cc1)C(=O)c1cc(F)c(F)cc1Cl	x	-0.2%	-3%	x
COc1ccc(NS(=O)(=O)c2ccc3c(c2)N(C(C)=O)CCS3)cc1	9%	-2.0%	-3%	x
COC(=O)C1C(=O)OC(C)(C)C1C(C)C(=O)c1ccccc1 (centres undefined)	0%	3.2%	6%	-2
N#Cc1c(SCC(=O)OCc2ccccc2)nsc1SCC(=O)OCc1ccccc1	8%	-0.8%	-5%	-19
O=C1OC(c2ccccc2)(c2ccc3cc(O)ccc3c2)c2ccccc21 (centres undefined)	x	-0.1%	1%	x
O=C(COc1ccc2c3c(c(=O)oc2c1)CCC3)NCC1CCC(C(=O)O)CC1 (centres undefined)	-1%	-2.1%	2%	x
COc1ccccc1NC(=O)COC(=O)C1CC1	3%	-0.8%	-2%	2
Cc1ccc(N(C(=O)Cc2cccs2)C(C(=O)NC2CCCCC2)c2ccccn2)cc1C (centres undefined)	-1%	9.3%	0%	-1
Oc1ccc(N2CCN(C(c3ccncc3)c3nnnn3C3CCCC3)CC2)cc1 (centres undefined)	-7%	2.2%	9%	0
COc1cc2c(cc1OC)C(C(=O)N1CCOCC1)C(c1cccs1)N(C)C2=O (centres undefined)	-4%	0.7%	14%	6
CCOc1ccccc1NS(=O)(=O)c1cc2c3c(c1)CC(=O)N3CCC2	-1%	-3.8%	3%	x
COc1ccc(NC(=O)N2Cc3ccccc3CC2C(=O)NC(C)(C)C)cc1 (centres undefined)	-7%	0.6%	5%	2
Cc1ccc(-c2csc(Nc3ccccn3)n2)cc1	-5%	-2.0%	-14%	x
COc1ccc(NC(=O)/C=C/c2ccccc2)cn1	-62%	-2.7%	-7%	15
CC(=NNc1nc2ccccc2s1)c1ccncn1	x	0.3%	-15%	x
COc1ccc(OC2C(=O)N(CCc3ccc(OC)c(OC)c3)C2c2ccc3c(c2)OCO3)cc1 (centres undefined)	20%	-3.2%	6%	1
COc1cccc2[nH]c3c(N4CCC(C(N)=O)CC4)ncnc3c12	-7%	11%	-4%	6
O=C(Nc1nnc(C2CCCCC2)s1)C1CC(=O)N(c2ccccc2)C1 (centres undefined)	-1%	-2.3%	1%	x
O=C(CSc1nnc(NC(=O)C2CC2)s1)Nc1ccc2c(c1)OCCO2	2%	-0.8%	26%	-2
CCOC(=O)CSc1nnc(NC(=O)CCc2ccccc2)s1	0%	0.2%	5%	x
COc1cccc(OCc2cc(C(=O)N3CCN(C(=O)c4ccco4)CC3)no2)c1	-53%	2.3%	1%	x
CCCc1nnc(SCC(=O)N2CCOCC2)n1CCCOC	3%	2.2%	-2%	-2
Cc1ccc(C(c2nnnn2Cc2cccs2)N2CCN(Cc3ccc4c(c3)OCO4)CC2)cc1 (centres undefined)	8%	1.1%	-11%	-21
CC(=O)O[C@H]1C(=O)[C@@]2(C)[C@H]([C@H](OC(=O)c3ccccc3)[C@]3(O)C[C@H](OC(=O)[C@H](O)C(NC(=O)c4ccccc4)c4ccccc4)C(C)=C1C3(C)C)[C@]1(OC(C)=O)CO[C@@H]1C[C@@H]2O (some centres undefined)	26%	-0.3%	-4%	-21
COc1cc(C2CC(=O)Nc3c2c(=O)nc2c(C)cccn32)cc(OC)c1OC (centres undefined)	-1%&-2%	7.6%	2%	7[21.1 µM]
Cc1ccc(S(=O)(=O)N2CCN(S(=O)(=O)N3CCC(C)CC3)CC2)c(C)c1	7%	0.0%	16%	x
CN1/C(=C\C(=O)COC(=O)c2ccc(O)cc2)C(C)(C)c2ccccc21	2%	9.0%	-13%	-5
COc1cc(-c2nc3ccc(C)cn3c2NCc2ccccc2)ccc1-c1cccc(Cl)c1	x	u	u	x
COc1ccc(NC(C)C(=O)Nc2cccc(S(=O)(=O)N3CCOCC3)c2)cc1OC (centres undefined)	x	2.6%	7%	x
C=CCN1C(=O)c2cccc3c(Br)ccc(c23)C1=O	-2%	-3.2%	10%	-4
CNc1nnc(-c2ccc(N(C)C)cc2)s1	-2%	-0.4%	-7%	u
COc1ccc(C2SCC(=O)N2c2ccc(OC)cc2)cc1 (centres undefined)	0%	-1.9%	-8%	x
Cc1ccc(C(=O)N/C(=C\c2ccco2)C(=O)N2CCCCC2)cc1	-6%	3.7%	-5%	x
Cc1ccc2cc(C#N)c(SCC(=O)N3CCCC3)nc2c1	-52%	-2.0%	17%	7
O=C(CCS(=O)(=O)c1ccc2c(c1)NC(=O)CS2)NCc1ccccc1Cl	1%	0.4%	20%	x
CCOC(CNC(=O)C1CCN(S(=O)(=O)c2ccc3nc4c(c(C(=O)O)c3c2)CCCCC4)CC1)OCC	-2%	1.8%	12%	x
O=C(/C=C/c1cccnc1)c1ccc(NC(=O)c2cccc(Br)c2)cc1	-21%	-4.8%	-5%	4
NC(=O)C1CCN(C(=O)c2ccccc2CCc2ccccc2)CC1	2%	-2.1%	1%	x
CN1CCCN(S(=O)(=O)c2ccccc2)c2nc3ccccc3nc21	x	u	6%	x
COc1ccccc1NS(=O)(=O)c1cccc(C(=O)OCC(=O)Nc2cc(C)on2)c1	-1%	-1.1%	-3%	10
COc1ccc(CN(C)CC(=O)Nc2ccccc2C(=O)NC2CC2)cc1	x	-2.6%	0%	x
C=CCn1c(SCCN2C(=O)c3ccccc3C2=O)nc2scc(-c3ccccc3)c2c1=O	-4%	5.6%	-4%	2
Cc1cccc(N2CCN(Cc3nc(-c4cccc(Oc5ccccc5)c4)oc3C)CC2)n1	-5%	2.2%	0%	-12
CC1(C)C=Cc2cc3ccc(=O)oc3cc2O1	-73%	-0.9%	-14%	18&27
O=C(NNc1cc(Cl)cc(Cl)c1)C1CCC1	0%	u	-9%	-4
Cc1ccc(S(=O)(=O)N(C)C)cc1NC(=O)CCc1ccccc1	-3%	0.1%	-6%	-14
CC1CCN(CCOCCOc2ccc(Cl)cc2Br)CC1	4%	3.0%	1%	8
Cc1ccc(NC(=S)NC2CCCC2)cc1C	-36%	-0.2%	2%	0
O=C(N/N=C/c1ccc2ncccc2c1)c1cc(-c2cccs2)nc2ccccc12	-1%	u	u	22
O=C(O)C1C2C=CC(C2)C1C(=O)NCCCc1ccccc1 (centres undefined)	-6%	0.2%	-13%	6
Cc1ccc(NC(=S)NCC23C=CC(O2)C2C(=O)N(c4ccc(C)cc4)C(=O)C23)cc1 (centres undefined)	-6%	u	-7%	-6
CCOC(=O)c1c(NC(=O)C(C)Sc2c[nH]c3ccccc23)sc2c1CCC2 (centres undefined)	-8%	1.1%	9%	-11
Cc1cc(C)cc(NC(=O)C(Nc2ccccc2)c2ccccc2)c1 (centres undefined)	-7%	-2.9%	-1%	-4
COc1ccc(/C=N/NC(=O)C(=O)N2CCN(c3ccccc3OC)CC2)cc1	-8%	-6.6%	0%	3
